HIV TAR-Tat: HIV-1 TAR-Tat binding disruption | HIV-1 TAR RNA, Tat peptide displacement FRET; active compounds read high | actives 0.6% (n = 100,000) | z-score (no concentration beside the values);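 further: score is relative to mean and SD of negative controls; some compounds called inactive have numbers as strong as hits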
CDC25B CDK2 inh: human CDC25B-CDK2/CyclinA binding inhibition; P30305+P24941; HTRF CDC25B-CDK2/CyclinA binding, anti-His/anti-Flag; active compounds read high; z-score (test concentration not listed); actives 0.72% (n = 94,000); AID 1259370;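 further: score is relative to mean and SD of negative controls; strong numbers were not always called active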
* hit, by the source's call; nt = no result given.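 How the source made its calls: active means z-score from 3 up in half or more of its runs; inactive means the rest.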

The first four compounds (preview)
smiles	HIV TAR-Tat	CDC25B CDK2 inh
CCOC(=O)C1CCCN(c2c(N3CCC(N4CCCCC4)CC3)c(=O)c2=O)C1 (configuration not stated)	1.2	0.07
Cc1ccccc1OCCN1CCNC1=S	nt	-0.7
O=c1c(NCc2ccccc2)c(NCc2ccccc2)c1=O	nt	0.42
N#Cc1c(-c2ccccc2)nc(SCC(=O)OC2CCCC2)[nH]c1=O	-0.22	-2.4

Main list, from the first entry:
smiles	HIV TAR-Tat	CDC25B CDK2 inh
CCOC(=O)C1CCCN(c2c(N3CCC(N4CCCCC4)CC3)c(=O)c2=O)C1 (configuration not stated)	1.2	0.07
Cc1ccccc1OCCN1CCNC1=S	nt	-0.7
O=c1c(NCc2ccccc2)c(NCc2ccccc2)c1=O	nt	0.42
N#Cc1c(-c2ccccc2)nc(SCC(=O)OC2CCCC2)[nH]c1=O	-0.22	-2.4
CCS(=O)(=O)Nc1ccc2c(c1)CCC(=O)N2C	1.9	nt
O=C(Nc1cccc(Cl)c1)C1=CC(=O)N2CCCN=C2S1	-0.62	-1.1
CC(C)c1cc(=O)n2c([nH]c3ccccc32)c1C#N	1.4	-2.6
O=C(Nc1cccc(F)c1)c1sc2ccccc2c1Cl	1.2	-0.77
COc1ccccc1C(=O)OCc1cc(=O)n2nc(C(C)C)sc2n1	1.6	nt
O=S(=O)(NCCCCNS(=O)(=O)c1cccc2cccnc12)c1cccc2cccnc12	1	-0.86
COc1ccc(N(Cc2cc3cc(OC)ccc3[nH]c2=O)S(=O)(=O)c2ccccc2)cc1	15	0.18
CSc1nc(NC2CCCC2)c(C#N)c(-c2ccccc2)n1	-1.1	-0.38
Cc1cc(C(=O)NCc2cccs2)on1	0.52	-1.6
CC(C)Cc1n[nH]c(=O)c2c1nnn2Cc1ccccc1F	-1.3	-1.7
Cn1cc(C(=O)NC2CCCCCC2)c(=O)c2cc(S(=O)(=O)N3CCCC3)ccc21	nt	-1.9
O=C(CN1c2ccccc2S(=O)(=O)c2ccccc21)N1CCCCC1	0.15	nt
Cc1cn(-c2nc(-c3ccccc3)oc2-c2ccccc2)c(=O)nc1NCCO	nt	0.3
O=C(Nc1nnc(S(=O)(=O)N2CCc3ccccc32)s1)c1ccccc1	1.5	-1.6
O=[N+]([O-])c1ccc2c(c1)S(=O)(=O)C=C2	nt	-0.94
Cc1ccc(C2=Nc3ccccc3NC(c3cccs3)=N2)o1	1.1	0.74

Among those listed so far, these contain an aryl methoxy group:
smiles	HIV TAR-Tat	CDC25B CDK2 inh
COc1ccccc1C(=O)OCc1cc(=O)n2nc(C(C)C)sc2n1	1.6	nt
COc1ccc(N(Cc2cc3cc(OC)ccc3[nH]c2=O)S(=O)(=O)c2ccccc2)cc1	15	0.18

(next part)
smiles	HIV TAR-Tat	CDC25B CDK2 inh
O=C(C1CCCN(S(=O)(=O)c2ccc3[nH]c(=O)oc3c2)C1)N1CCN(c2ccccc2F)CC1 (configuration not stated)	-0.16	nt
CC(C)C(=O)NCC(c1cccs1)S(=O)(=O)c1cccs1 (configuration not stated)	0.77	nt
Cc1[nH]c(=O)c(C#N)cc1-c1ccncc1	2.1	0.28
CCCc1nnc(N2C(=O)c3oc4ccc(F)cc4c(=O)c3C2c2ccc(O)c(OCC)c2)s1 (configuration not stated)	2.4	-1.1
CN(Cc1ccccc1)C(=O)Cn1ncc2c3ccccc3n(Cc3ccccc3)c2c1=O	0.74	-0.92
O=C(O)c1ccc(Cn2c(SCc3ccc(F)cc3)nc3cccnc32)cc1	1.1	-0.41
COc1cccc(-c2noc(NC3CCCC3)n2)c1OC	1.2	nt
Cc1onc(-c2c(F)cccc2Cl)c1C1=NCCO1	nt	-1.7
C=CCOc1ccc2c(=O)c(Oc3cccc(C)c3)c(C(F)(F)F)oc2c1	3.3	0.78
CC(=O)N1c2ccc(S(=O)(=O)N3CCC(C(=O)Nc4nccs4)CC3)cc2CC1C (configuration not stated)	-0.77	nt
NC(=S)N/N=C1\CCc2ccccc21	nt	-1.6
COCCNC(=O)NC1COc2ccc(OC)cc2C1 (configuration not stated)	1.9	nt
Cn1nc(C(=O)NCCc2ccco2)c2c1-c1ccsc1CC2	0.34	nt
O=C(Nc1nnc(-c2ccco2)s1)c1cn(-c2ccc(F)cc2)nn1	1.3	-1.8
Cc1ccc(-c2nonc2NC(=O)c2ccc(Br)cc2)cc1C	1.2	-0.2
O=C(Oc1ccc(OC(=O)c2cccnc2)c(Cl)c1)c1cccnc1	0.58	-0.46
CCCCS(=O)(=O)c1oc(-c2cccs2)nc1S(=O)(=O)c1ccccc1	-0.1	-1.7
Cn1c(=O)c2c(nc(N3CCOCC3)n2CC(O)COc2ccc(Cl)cc2)n(C)c1=O (configuration not stated)	nt	0.16
Cc1cc2nc(-c3cc(NC(=O)c4ccc5c(c4)OCCO5)ccc3O)oc2cc1C	nt	-3.2
C=CCN(Cc1nc(-c2ccc(C)cc2)no1)S(=O)(=O)c1ccc(Br)cc1	2.1	-1.2

(cont.)
smiles	HIV TAR-Tat	CDC25B CDK2 inh
O=c1cc(CSc2ncn[nH]2)nc2sc(C3CC3)nn12	-0.6	nt
O=C1CNC(=S)N1c1cccc(C(F)(F)F)c1	nt	-0.03
CC1(C)OC(=O)C(=C2SCCCS2)C(=O)O1	nt	-2.7
CCOCCCNC(=O)N1CCC2(CC1)Nc1cc(F)ccc1-n1cccc12	-0.43	nt
Cc1cc(C)n(Cc2c(C(=O)NCCCOC(C)C)noc2C)n1	-0.22	nt
CCOC(=O)C1=C(C)NC2=C(C(=O)CC(C)(C)C2)C1c1cccc2ccccc12 (configuration not stated)	1.7	-1.4
O=C(c1ccc(N2C(=O)CCS2(=O)=O)cc1)N1CCN(c2ccc(F)cc2)CC1	1.1	-3.4
CCc1cc2c3c([nH]c2cc1S(=O)(=O)Nc1cc(F)ccc1F)CCCC3=O	3.6	nt
CCC1CCCCN1C(=O)C1=CC(c2ccco2)=NS(=O)(=O)N1C (configuration not stated)	-0.69	-1.4
COC(=O)C1=C(OC(=O)Cc2ccccc2)c2ccccc2S(=O)(=O)N1C(C)C	-1.2	-1.8
CCCN1C(=O)c2[nH]nc(-c3ccc(F)cc3)c2C1c1cccnc1 (configuration not stated)	-0.14	-1.4
Cc1cc(C)c(NC(=O)C(C)Sc2nc3ncccc3[nH]2)c(C)c1 (configuration not stated)	0.1	nt
Cc1ccc2nc3c(cc(C#N)c(=O)n3-c3ccccc3F)c(=O)n2c1	0.98	-1.2
Cc1ccc(-c2nc3sc(C)c(C)c3c(=O)o2)cc1	1.7	-1.1
CC(C)c1ccc(C2N3CC4(C)CN2CC(C)(C3)C4)cc1 (configuration not stated)	1.8	0.77
CC(=O)N1c2ccc(S(=O)(=O)N(C)CC(=O)NCc3cccs3)cc2CC1C (configuration not stated)	-0.56	nt
O=C1c2oc3ccc(F)cc3c(=O)c2C(c2ccccc2F)N1CCCN1CCOCC1 (configuration not stated)	-0.72	-1.3
COc1ccc(-c2nnc(SCC(=O)OC(C)C)o2)cc1	1.1	-2.7
Cc1nonc1NC(=O)C(C)Oc1ccc(F)cc1 (configuration not stated)	0.8	1.6
Cc1cc(C)n(-c2nc3c(c(=O)n2CC(=O)NC2CCCCC2)CCCC3)n1	2	nt

(further entries)
smiles	HIV TAR-Tat	CDC25B CDK2 inh
COc1ccc(CN2CN=C(Nc3nc4ccccc4o3)NC2)cc1	-6.8	-1.6
COc1ccccc1-n1ncc2c(=O)[nH]c(SCc3cccc4ccccc34)nc21	0.5	nt
CC1CS(=O)(=O)N(c2ccc(C(=O)NC3=NCCS3)cc2)C1=O (configuration not stated)	0.83	-0.56
Cc1nc(C)c(-c2ccc(SCC(=O)Nc3ccc(Cl)cc3)nn2)s1	0.88	nt
O=C(O)c1cc(=O)c(O)c2c(O)c(O)ccc2c1	25*	nt
O=C(O)CCN1C(=O)C(=O)/C(=C(/O)c2ccccc2)C1c1ccc(Cl)cc1 (configuration not stated)	nt	-2
Cc1c(C(=O)Nc2ccc(Cl)cn2)sc2nc3n(c(=O)c12)CCCCC3	4.1	nt
O=C(c1cn(CC(=O)N2CCCCC2)c2ccccc12)C1CC1	0.55	0.63
O=C1C(c2cccc(Br)c2)N(Cc2ccccc2)C(=O)CN1C1CCCCC1 (configuration not stated)	nt	-0.95
Cn1c(N2CCN(C(=O)c3[nH]nc4c3CCc3ccccc3-4)CC2)cc(=O)n(C)c1=O	1.1	nt
O=C1C2C3c4ccccc4C(C(=O)O)(c4ccccc43)C2C(=O)N1c1ccccc1 (configuration not stated)	0.83	-0.41
Cc1ccc(-c2nsc(NC(=O)c3cc(=O)c4ccccc4o3)n2)s1	-0.1	-1.3
CCCC(=O)Nc1nnc(SCc2nc3ccccc3[nH]c2=O)s1	-2.2	nt
CC(C)c1nn2c(=O)cc(COc3cccc(NC(=O)C(C)(C)C)c3)nc2s1	2.7	-2
COc1ccc(-c2cc(C(F)F)n3ncc(C(=O)N(C)Cc4cnn(C)c4)c3n2)cc1	0.06	-1.4
C/C(Cl)=C/CN1CCN(C/C=C(/C)Cl)CC1	nt	-0.98
O=C1CN(Cc2cccc(F)c2)S(=O)(=O)c2ccccc2N1Cc1ccccc1	2	nt
Cc1nc2sccn2c(=O)c1S(=O)(=O)Nc1ccc(N2CCCCC2)cc1	1.1	nt
CCCCn1c(Cn2ccnc2C)nc2cc(NC(=O)CCC)ccc21	-0.34	-0.64
C=CCc1c(O)c(CC)cc2c(C)cc(=O)oc12	nt	-0.1

The list goes on:
smiles	HIV TAR-Tat	CDC25B CDK2 inh
Cc1ccccc1NC(=S)N1CCCCC1C (configuration not stated)	nt	-0.33
CCOC(=O)C(CC)Sc1nc(-c2ccccc2)[nH]c1[P+](c1ccccc1)(c1ccccc1)c1ccccc1 (configuration not stated)	nt	2.6
Fc1ccccc1-c1nn2c(Cn3nnc4ccccc43)nnc2s1	1.7	-1.1
COc1ccc(-c2noc(-c3scc(-c4cccc(C)c4)c3-n3cccc3)n2)c(OC)c1	2	-6.4
O=C(NCCCN1CCCCC1)c1cc(=O)[nH]c2ccc(S(=O)(=O)N3CCCCC3)cc12	nt	0.55
CCCN1CCN(CCCNC(=O)C(CC)n2nc(C)c3sc4ccccc4c3c2=O)CC1 (configuration not stated)	2.2	0.2
O=C(c1ccc(CS(=O)c2cccc(Cl)c2)o1)N1CCCCC1 (configuration not stated)	1.5	nt
Cc1sc2ncn3cnnc3c2c1C	nt	1.2
CC(=O)c1coc2c(O)c(O)ccc12	nt	-3.6
CC(C)Nc1ncnc2c1cnn2C	-0.44	-0.92
CSc1ncc(CO)n1Cc1ccc(F)cc1	1.7	nt
O=C(CS(=O)(=O)c1ccc(Cl)cc1)Nc1nc2c(s1)CCC2	1.5	nt
COc1ccc(C2C(C#N)=C(N)SC3C(=O)N(c4ccc(Br)cc4)C(=O)C32)cc1 (configuration not stated)	-2	0.03
O=C(CSc1nnc(-c2cc3ccccc3n2-c2ccccc2)o1)Nc1nccs1	3.3	-0.84
Cc1noc(C)c1C(=O)N1CCN(c2ncc(C(F)(F)F)cc2Cl)CC1	nt	-1.4
Cc1cc2n(n1)CCC(=O)N2CCCC(=O)NCCCOC(C)C	-1.3	nt
CC(C)CCN(C(=O)Nc1ccccc1)C(C)c1cccs1 (configuration not stated)	1.5	nt
Cc1cccn2c(=O)c3cc(C#N)c(=O)n(Cc4ccc(F)cc4)c3nc12	1.7	-1.7
Nc1nc(-c2ccc(F)cc2)nn1C(=O)C(c1ccccc1)c1ccccc1	-0.12	-0.11
CCOC(=O)C1CCN(c2c(Nc3cc(C)[nH]n3)c(=O)c2=O)CC1	1.4	-1.6

In a second layout: entries from further up.
Each structure is followed by: HIV TAR-Tat	CDC25B CDK2 inh
Cc1ccc(-c2nonc2NC(=O)c2ccc(Br)cc2)cc1C
    1.2	-0.2
C=CCOc1ccc2c(=O)c(Oc3cccc(C)c3)c(C(F)(F)F)oc2c1
    3.3	0.78

(listing goes on)
smiles	HIV TAR-Tat	CDC25B CDK2 inh
CCOC(=O)c1c(C)[nH]c(C)c1S(=O)(=O)NC1CCCc2ccccc21 (configuration not stated)	0.81	nt
CCOC(=O)c1cn[nH]c1S(=O)(=O)Nc1ccc(OC)c(Cl)c1	-0.53	nt
Cc1nn(CC(=O)NCCC(C)C)c(=O)c2cc3cc(F)ccc3n12	-1.1	1.2
CC(=O)Nc1ccc([N+](=O)[O-])c(C(=O)O)c1	nt	-0.44
Cc1ccc(S(=O)(=O)n2cnc3ccccc32)c(C)c1	0.81	-1.6
CCOC(=O)c1nsc(Cl)c1Cl	nt	-1.4
CN(C)CCn1c2c(c(SCC(=O)N3CCc4ccccc43)nc1=O)CCC2	0.21	nt
COc1ccc(OC)c(S(=O)(=O)NCc2cc(C)n(-c3ccc(F)cc3)c2C)c1	1.5	nt
CCOC(=O)c1nc(NCc2cccc(Br)c2)c2oc3ccccc3c2n1	1.6	nt
O=c1[nH]c2cc3c(cc2c(=O)n1CCc1nc(-c2cccc(Cl)c2)no1)OCO3	-1.1	nt
C=CCSc1nnc(NC(=O)Cc2coc3cc(C)ccc23)s1	2	-0.57
CCOC(=O)C1CCN(c2nc3c(S(=O)(=O)c4ccc(C)c(C)c4)nnn3c3ccsc23)CC1	-0.04	nt
O=c1[nH]nc2ccc(S(=O)(=O)Cc3ccc(Cl)cc3)nn12	1.4	1.3
COc1cc2c(cc1OC)-c1cc(Oc3cccc(C)c3C)nc(=O)n1CC2	-1	-1.6
COc1ccc(N2COc3ccc4c5c(c(=O)oc4c3C2)CCC5)cc1	nt	-0.33
CC(C)Oc1ccc(CN2CCc3nc(N4CCCC4)ncc3C2)cc1	1.4	nt
Cc1cc(NC(=O)CSc2nc(C3CC3)nc3c2c(=O)n(C)c(=O)n3C)no1	-0.1	nt
O=C1c2ccc(-c3nc4ccccc4c(=O)o3)cc2C(=O)N1c1ccc(Cl)cn1	nt	0.52
